Screening results from PubChem BioAssay.
BasE inh – BasE siderophore biosynthesis inhibition. purified BasE, fluorescence polarization binding displacement. inhibition, % (concentration not given with the values). 0.1% of 84,000 active;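 active means both replicates above 25% with normal brightness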;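 further: 0% = negative plate control signal and 100% = positive plate control signal; stock transfer was 100 nL into about 30 µL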
KSHV LANA nucl – LANA-nucleosome interaction inhibition | z-score (no concentration beside the values) | FITC-LANA1-23 / chicken nucleosome fluorescence polarization; hits give low values | 0.3% of 51,000 active;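 active means both repeat wells score below -2 in polarization z-score versus plate sample wells, excluding overly bright wells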;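 further: 100 nL library stock added to about 30 µL; numbers are from one replicate; some results filed as inactive read as strong as hits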
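System – purified chicken nucleosomes with FITC-labelled LANA N-terminal peptide (1-23) · Amount – 240 nM purified chicken nucleosomes (480 nM peptide binding sites), final · Also added – 50 nM FITC-LANA1-23 probe · Medium – TEN-BT buffer, pH 7.5 · Incubation – compound with peptide–nucleosome mix 10–45 min at room temperature · Detection – fluorescence polarization, ex 480 nm, em 535 nm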
* marks the source's active call; other numbers are inactive results; . = no result given. Some of the compounds tested; count on the stated rates, not on these rows.

SMILES	BasE inh	KSHV LANA nucl
COc1ccc(N2C(N)=C(C#N)C(c3ccc(O)c(OC)c3)C3=C2CCCC3=O)cc1 (configuration not stated)	1.2	0.22
Cc1ccc(C)n1-c1sccc1C(=O)OCc1cc(=O)n2c3c(sc2n1)CCCC3	0.7	.
CCCNC(=O)c1ccc(Cn2nc(-n3cccc3)c3c(C)cc(C)nc32)cc1	1.3	1.3
CCS(=O)(=O)N1CCC(c2nc3ccccc3s2)CC1	-3.2	-0.26
Cc1cccc(C)c1NC(=O)C(NC(=O)CC1NC(=O)NC1=O)c1ccccc1 (configuration not stated)	0.7	0.69
O=C(CC1SC(=Nc2ccc(O)cc2)NC1=O)c1ccccc1 (configuration not stated)	-1.4	0.9
CC(=O)N1CCN=C1SCc1ccc(Br)cc1	-12	-0.67
CCCN(CCC)CN1CC(Cn2c3ccccc3c3ccccc32)OC1=O (configuration not stated)	1.4	.
COc1ccc(-c2[nH]c(=S)nc(N)c2-c2nc3ccccc3n2C)cc1	0.5	.
CCCCSc1nc2c(cnn2-c2ccccc2)c(=O)[nH]1	1.0	-0.37
Cc1ccc(Oc2cc(C#N)c3ccccc3n2)c(-n2nc3ccccc3n2)c1	-4.3	.
CNC(=S)NCCc1cc2c(OC)ccc(OC)c2[nH]c1=O	1.4	0.88
O=C(OCC(=O)N1CCCCC1)c1c(Cl)cccc1Cl	1.8	.
Cc1ccc(C(=O)NCC(c2ccco2)N2CCCC2)cc1 (configuration not stated)	-0.6	0.028
Cc1ccc(C)n1-c1sc2c(c1C#N)CCCC2	0.7	.
O=C(CSc1ccccn1)N(C1CCCCC1)C1CCS(=O)(=O)C1 (configuration not stated)	-1.6	.
O=C(Nc1ccccc1)OCc1cc(-c2ccccc2)c(C(F)(F)F)s1	3.6	.
Cc1c(Cl)cccc1NC(=O)C1CC2CCCC(C1)C2=O (configuration not stated)	-1.8	0.28
Cc1ccc(S(=O)(=O)N2CCc3ccccc3C2)cc1C(N)=O	-1.5	-0.43
CC(=O)N(Cc1nc(-c2ccccc2)no1)C(C)C	0.2	0.028
O=C1CSC(=S)N1c1ccc(F)c(F)c1	1.5	-0.12
O=C1CCC(C(=O)OCc2c(Cl)cccc2Cl)N1 (configuration not stated)	0.9	.
Cn1c(C(C#N)C(=O)c2cccc(S(=O)(=O)N3CCc4ccccc43)c2)nc2ccccc21 (configuration not stated)	-1.0	.
Cc1oc(C)c(C(=O)O)c1C	-0.7	.
CC(C)c1ccc(NC2=CC(=O)CC(C)(C)C2)cc1	-2.7	-0.41
O=C(N/N=C/c1ccccc1O)c1ccc(N2Cc3ccccc3C2)cc1	-0.7	0.83
O=C(Nc1ccc(N2CCCCC2)cc1)Nc1ccc(F)cc1F	0.8	-0.92
Cc1nc(-c2ccccn2)nc(NC2CCN(c3ncc(C(F)(F)F)cc3Cl)CC2)c1Cl	0.0	.
Cc1ccc(-n2c(C)cc(/C=N/NC(=O)CC3(C)OCCO3)c2C)cc1	0.7	0.053
O=C(COC(=O)c1ccccc1O)c1ccc(Cl)cc1	-0.1	0.19
CC1CCN(C(=O)COC(=O)c2cc(C(F)(F)F)cc(C(F)(F)F)c2)CC1	-0.4	.
Cc1cc(CO)sc1C	-0.9	0.34
Cc1cc(C)n2c(CNC(=O)c3ccc(S(=O)(=O)N4CCCCCC4)cc3)nnc2n1	-0.5	.
COC(=C(C#N)C#N)c1c(-c2c(Cl)cccc2Cl)noc1C	2.6	-0.27
Cc1ccc2[nH]c3c(C#N)c(=O)c4nc(N5CCCC5)ncc4n3c(=O)c2c1	-1.0	.
Nc1nc(N)nc(SCC(=O)N2CCSC2c2ccccc2F)n1 (configuration not stated)	-0.4	.
CCN(Cc1cc2ccc(C)cc2[nH]c1=O)C(=O)C1CCCCC1	0.9	-0.092
CCCc1cc(-c2[nH]ncc2-c2ccc(C(=O)OCC)o2)c(O)cc1O	1.6	.
CCOC(=O)c1c(C)oc2nc(CN(c3ccc(OC)cc3)S(=O)(=O)c3cc(C)ccc3C)nc(N)c12	-7.8	.
COc1ccc(-n2c(SCC(=O)O)nc3c([nH]c4ccccc43)c2=O)cc1OC	0.8	-0.15
CC(C)C1=CCC(C)/C(=C\c2ccc(Cl)cc2)C1=O (configuration not stated)	0.3	.
OCc1nc2c(ccc3ccccc32)[nH]1	-0.9	-0.69
Cc1cc(C(=O)COC(=O)c2cccs2)c(C)n1CCc1ccccc1	1.2	.
CCOC(=O)C1CCN(/C=C(\C#N)S(=O)(=O)c2ccccn2)CC1	2.4	-0.35
CC1=CC(C)C(COC(=O)Nc2ccccc2)C(C)C1 (configuration not stated)	1.8	-0.32
Cc1ccc(NC(=S)NC(=O)CC(C)C)cc1	1.1	-0.18
COc1cccc(-c2c(C(N)=O)nnc3cc(-c4ccccc4)nn23)c1	0.0	.
CCCCN(C)C(=O)C1CCN(Cc2ccc(OCc3ccccc3)c(OC)c2)CC1	0.1	-0.22
O=C(CSc1nnc(-c2c[nH]c3ccccc23)o1)NC1CC1	1.7	.
N/C(=N\O)c1ccc(N2CCN(c3ncccc3C(F)(F)F)CC2)nc1	-0.9	.
CC(C)N(Cc1nc(-c2ccccc2)no1)C(=O)C(c1ccccc1)c1ccccc1	0.0	0.39
COc1ccc(NC(C)=S)cc1OC	1.6	.
Cc1cc(C)nc(SCC(=O)OCC(=O)c2cc(C)n(C)c2C)n1	-1.5	.
O=C(CCc1c[nH]c2ccccc12)OCc1nnc(-c2ccccc2)o1	2.3	-2.1*
c1ccc(OCCSc2nncn2-c2ccccc2)cc1	-3.8	.
CCOc1ccc(C=NC2=C(C#N)CCC2)cc1OC	-3.5	1.5
CC1CCCN(CNC(=O)c2ccccc2)C1 (configuration not stated)	1.1	-1.4
Oc1oc(C=Nc2cccc(C(F)(F)F)c2)c2ccccc12	.	-0.46
CCOc1ccc(-c2[nH]ncc2-c2csc(C)n2)c(O)c1	-0.5	.
Cc1ccsc1C(=O)OCc1ccc(C#N)cc1	0.3	.

A second format for some results above:
Compound | BasE inh | KSHV LANA nucl
CC(C)C1=CCC(C)/C(=C\c2ccc(Cl)cc2)C1=O (configuration not stated) | 0.3 | .
CC1CCCN(CNC(=O)c2ccccc2)C1 (configuration not stated) | 1.1 | -1.4
Cc1cc(C(=O)COC(=O)c2cccs2)c(C)n1CCc1ccccc1 | 1.2 | .
CCCCN(C)C(=O)C1CCN(Cc2ccc(OCc3ccccc3)c(OC)c2)CC1 | 0.1 | -0.22
Oc1oc(C=Nc2cccc(C(F)(F)F)c2)c2ccccc12 | . | -0.46
COc1ccc(NC(C)=S)cc1OC | 1.6 | .
CC1=CC(C)C(COC(=O)Nc2ccccc2)C(C)C1 (configuration not stated) | 1.8 | -0.32

Next section
SMILES	BasE inh	KSHV LANA nucl
COc1cccc(-c2c(OC)cccc2C2CCCCN(C)C2=O)c1 (configuration not stated)	.	-0.096
O=C(COC(=O)c1ccc2c(c1)OCCO2)NCc1ccccc1	1.7	.
COc1ccc(CNCCC2(O)CC(C)N(C)CC2C)cc1OC (configuration not stated)	-0.4	0.87
COc1ccc(C)cc1NC(=O)C1CCN(S(=O)(=O)c2ccc(OC)c(OC)c2)CC1	-3.0	0.36
CN1CCN(S(=O)(=O)c2ccc3c(c2)oc(=O)c2cc(S(=O)(=O)N4CCN(C)CC4)ccc23)CC1	2.2	0.16
COc1ccccc1NC(=O)CC1C(=O)NC2CCCCC2N1C(=O)C(F)(F)F (configuration not stated)	1.3	0.53
COc1ccc(-c2noc(N3CCCC(C(=O)N(C)c4cc(Cl)ccc4OC)C3)n2)cc1 (configuration not stated)	-1.4	1
CCC1(C)NC(=O)N(/N=C/c2cc(C)n(-c3cccc(S(=O)(=O)N4CCOCC4)c3)c2C)C1=O (configuration not stated)	1.7	.
CS(=O)(=O)c1nnnn1-c1cccc2ccccc12	-0.1	1.1
Cc1cccc(C(=O)NCC(=O)NN)c1	0.1	-0.23
CCN(CC)C(=O)CS(=O)(=O)Cc1nc(-c2cccc(OC)c2)oc1C	-0.7	0.12
CC(C)(CO)C(O)C(=O)NC1CCCCC1 (configuration not stated)	-1.4	-0.14
Cc1cc(SCC(=O)Nc2oc(C)c3c(C)n[nH]c(=O)c23)nc2ccccc12	1.4	.
CC1C(c2ccccc2)OC(c2ccccc2O)N1C (configuration not stated)	0.0	0.54
COc1ccc(OC)c(/C=C/C(=O)NCCN2CCC(N(C)C3CCCCC3C)CC2)c1 (configuration not stated)	-2.7	-0.4
Cc1ccn2c(=O)cc(CNCC(c3ccc(F)cc3)N3CCOCC3)nc2c1 (configuration not stated)	0.0	.
CC(C)n1cc(C(=O)c2ccccc2O)cc1-c1nc2ccccc2c(=O)[nH]1	-0.1	.
Cc1cc(SCc2ccc(F)cc2)c(C)cc1Cl	-4.8	.
Cc1nn(C(C)C(=O)NC(C)CCc2ccccc2)c(=O)c2cc3sccc3n12 (configuration not stated)	-2.4	-0.34
CC1=C/C(=N\NC(=O)COc2ccc(C#N)cc2)CC(C)(C)C1	-0.1	.

2 entries from above, reformatted:
Fields: BasE inh	KSHV LANA nucl
> CC1C(c2ccccc2)OC(c2ccccc2O)N1C (configuration not stated)
    0.0	0.54
> COc1ccc(OC)c(/C=C/C(=O)NCCN2CCC(N(C)C3CCCCC3C)CC2)c1 (configuration not stated)
    -2.7	-0.4

Whole records, quoted from the list.
Entry for Cc1cccc(C(=O)NCC(=O)NN)c1 : BasE inh: 0.1; KSHV LANA nucl: -0.23
Entry for CC(C)n1cc(C(=O)c2ccccc2O)cc1-c1nc2ccccc2c(=O)[nH]1 : BasE inh: -0.1; KSHV LANA nucl: .

Remaining list, next part
SMILES	BasE inh	KSHV LANA nucl
CCC1c2ccc(C)n2CCN1C(=O)Nc1ccccc1Cl (configuration not stated)	2.2	-0.89
COc1ccc(Cn2nnnc2CN2CCc3ccccc32)cc1	-2.1	0.86
Cc1ccc2c(c1)-c1c(cnn1CC(=O)NCCc1ccsc1)CO2	1.1	-0.94
Cc1csc2c(NC(C)C)ncnc12	-1.5	.
O=c1c2c(nc(NCCO)n1-c1ccccc1)-c1ccccc1CC21CCCCC1	-0.6	0.49
Cc1ccccc1CN(C)C(=O)[C@H](Cc1ccccc1)NC(=O)c1ccco1	-0.7	.
COc1cccc2sc(NS(=O)(=O)CS(=O)(=O)Nc3nc4c(OC)cccc4s3)nc12	1.0	0.49
CCNC(=S)NS(=O)(=O)c1ccccc1	0.3	-1.1
O=C(O)C1CCN(S(=O)(=O)c2ccc(C(F)(F)F)cc2)CC1	1.7	-0.95
COc1cccc(S(=O)(=O)NCC(=O)N2CCCCC2C)c1 (configuration not stated)	1.4	-0.077
Cc1[nH]n(-c2ccccc2)c(=O)c1C=NCc1ccncc1	2.1	.
O=C(CN1CCOCC1)Nc1ccccc1Oc1ccccc1	.	-0.53
COCCn1c(O)c(C=NCc2nc3ccccc3n2C)c(=O)[nH]c1=S	16	.
CN(C)c1ccc(NC(=O)CCCc2ccccc2)cc1	-1.4	0.1
Cc1ccc(C2C(=O)N(C3CCCCCC3)CC(=O)N2C2CCCCC2)cc1 (configuration not stated)	-3.9	1.9
CSc1ncc(C(=O)NCc2ccc(F)cc2)c(C(F)(F)F)n1	-2.0	0.11
CNC(=O)Nc1ccc(C2SCCS2)cc1	0.3	.
N#CCc1c(C#N)c(N)nc(NCc2ccccc2)c1C#N	-0.2	.
O=C(O)[C@H](O)[C@@H](O)[C@H](O[C@@H]1O[C@H](CO)[C@H](O)[C@H](O)[C@H]1O)[C@H](O)CO	-2.5	-0.17
CC(C)N(C(=O)Cn1ccc(=N)c2ccccc21)C(C)C	1.2	.
Nn1c(COc2ccccc2)nnc1SC(F)F	2.4	-0.83
CCC(=O)Nc1ccc(C2=NN(C)C(=NCc3ccccc3)SC2)cc1	-1.1	.
O=C(Cc1ccccc1)Nc1cccc(-c2nc3ccccc3o2)c1	-72	2.1
N#CC(C#N)=Cc1cn(-c2ccccc2)nc1C(=O)c1ccccc1	1.4	.
CCC1CN(C(=O)Nc2cccc(C)c2)c2ccccc2S1 (configuration not stated)	-2.7	-0.31
O=C1c2ccccc2-c2nnc(-c3ccc(O)cc3)cc21	.	0.25
COc1ccc2nc(NC(=O)c3ccco3)sc2c1	-3.1	.
O=c1[nH]c(CN2CCN(S(=O)(=O)/C=C/c3ccccc3)CC2)nc2ccccc12	-1.9	.
O=C(O)CCNS(=O)(=O)c1ccccc1	-0.6	.
S=C(NC1CCCCC1)N1CCCCC1	3.2	.
CC[N+]12CCC(CC1)C(C(=O)c1cccs1)C2 (configuration not stated)	-2.5	.
Cc1c(C(=O)O)sc2ccccc12	-1.7	.
CCOC(=O)c1ccc(COC(=O)c2ccc(-c3nnc(-c4ccccc4)o3)cc2)o1	1.8	0.39
O=C(Cn1c(CC(=O)N2CCOCC2)nc2ccccc21)Nc1ccc2c(c1)OC(F)(F)O2	1.3	.
CCCP(=O)(CC(=O)O)c1ccccc1 (configuration not stated)	3.6	0.29
CCC1CCCCN1C(=O)COc1ccc(F)cc1 (configuration not stated)	-0.2	0.65
CCN1CCN(c2ccc(N=Cc3cccc(C)c3O)cc2)CC1	0.0	0.33
Cc1ccc(CNC(=O)COC(=O)CN2C(=O)C3CC=CCC3C2=O)cc1 (configuration not stated)	1.1	.
Cc1ccc2oc(-c3ccc(NC(=O)C(F)(F)F)cc3)nc2c1	1.9	-0.21
COc1ccc(OC)c(Nc2nc(Nc3cc(OC)ccc3OC)nc(N3CCC(C)CC3)n2)c1	1.7	-0.34
COc1ccc(C2NCCS2)cc1 (configuration not stated)	-0.1	0.95
CCC(=O)Nc1ccc(S(=O)(=O)N2CCCC2)cc1	-1.6	-0.42
